PV pol inh – poliovirus RNA polymerase inhibition; poliovirus polymerase elongation, fluorescence polarization; active compounds read low; P03300; % elongation, % (compound at 16.7 µg/mL); 150,000 compounds, 0.66% hits; in the data active = % elongation below about 90%; note: some results filed as inactive read as strong as hits
Target sequence (P03300 1749-2209 limits assumed): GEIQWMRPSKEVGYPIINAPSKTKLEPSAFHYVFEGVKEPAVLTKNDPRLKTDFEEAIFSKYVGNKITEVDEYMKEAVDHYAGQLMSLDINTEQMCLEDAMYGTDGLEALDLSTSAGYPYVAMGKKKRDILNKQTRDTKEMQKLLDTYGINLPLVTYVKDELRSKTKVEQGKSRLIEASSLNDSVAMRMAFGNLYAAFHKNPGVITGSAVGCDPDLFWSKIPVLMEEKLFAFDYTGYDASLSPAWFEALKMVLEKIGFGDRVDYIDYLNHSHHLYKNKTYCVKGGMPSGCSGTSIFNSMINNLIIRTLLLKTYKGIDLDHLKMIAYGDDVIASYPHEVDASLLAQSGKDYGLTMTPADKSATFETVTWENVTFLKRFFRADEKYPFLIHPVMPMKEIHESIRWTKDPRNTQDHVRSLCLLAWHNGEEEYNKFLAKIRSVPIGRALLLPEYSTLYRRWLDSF
PV pol inh intensity – second read-out of PV pol inh, no call of its own (marks repeat the call); % elongation; measured here: total intensity read-out; formula for this scale not given here;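 total fluorescence in place of polarization; lower means less elongation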
Active calls of the source: *. An excerpt. The share of hits here may be higher or lower than overall.

SMILES | PV pol inh intensity | PV pol inh
Cc1c(Cl)cccc1NC(=O)c1noc2c1CCCC2 | 111 | 108
Cc1cccc(CS(=O)(=O)c2ncc(Cl)c(C(=O)NCc3ccccc3)n2)c1 | 102 | 106
COc1ccc(CNC(=O)c2cc3c(=O)[nH]c4ccccc4c3n2C)c(OC)c1 | 105 | 104
Cc1cccc(-c2nnc(SCC(=O)N3CCCCC3)o2)c1 | 104 | 110
Cc1c(C)c2cc3c(c(C)c2oc1=O)OCN(CCc1ccc(F)cc1)C3 | 105 | 102
CCCCN(Cc1ccccc1)S(=O)(=O)c1cc(Br)cc2c1N(C(=O)C1CC1)CC2 | 111 | 106
COc1ccc(Nc2ncnc3onc(-c4ccc(Cl)cc4)c23)cc1Cl | 107 | 109
COc1ccc(OC)c(NC(=O)Cn2c(=O)cc(C)c3c(C)nn(-c4cccc(Cl)c4C)c32)c1 | 99 | 106
COc1cccc(N2CC(NC(=O)C3CCCC3)CC2=O)c1 (stereo unspecified) | 113 | 111
COc1ccc(OC)c(NC(=O)c2c(NCc3cccs3)sc3c2CCCCC3)c1 | 124 | 110
N#C/C(=C\c1ccc(-c2cccc(Cl)c2)o1)C(=O)Nc1cccc(C(F)(F)F)c1 | 107 | 101
COc1cccc(-c2cc(C(=O)NCCc3ccc(OC)c(OC)c3)no2)c1 | 103 | 105
CSCCC(NC(=O)C1CCCCC1)C(=O)Nc1ccc(F)c(Cl)c1 (stereo unspecified) | 103 | 102
COc1ccc(C(=O)Nc2nc(-c3nnn(-c4cc(OC)ccc4OC)c3C)ns2)cc1 | 101 | 103
COc1ccc(N2CCN(C(=O)Cc3noc4ccc(C)cc34)CC2)cc1 | 112 | 110
COc1ccccc1-c1nn(CCC(=O)Nc2cccc(C(C)=O)c2)c2nc(C)cc(C)c12 | 107 | 105
COc1ccc(NC(=O)C(NC(=O)/C=C\c2ccc3c(c2)OCO3)c2ccc(C)cc2)cc1 (stereo unspecified) | 103 | 102
O=C(Nc1nnc(S(=O)(=O)N2CCOCC2)s1)c1cccc(Br)c1 | 112 | 113
COCCNC(=O)c1ccc(-c2nc(CS(=O)(=O)c3ccccc3)c(C)o2)cc1 | 98 | 103
COc1ccc(C2(Nc3cccc(F)c3)C(=O)c3ccccc3C2=O)cc1 | 111 | 108
O=C(CCC(=O)N1CC2CCCN2c2ccccc21)NCc1cccc(Cl)c1 (stereo unspecified) | 108 | 101
CCc1ccc2oc(C(=O)NCc3ccccc3)cc(=O)c2c1 | 112 | 114
CCN(CC)S(=O)(=O)c1ccc2c(c1)N(CC(=O)NCCc1ccc(OC)c(OC)c1)C(=O)CO2 | 111 | 106
COc1ccc(CCNC(=O)c2cccc(-n3c(C)nc4cccnc43)c2)cc1OC | 106 | 111
CCc1ccc(N2CCn3c2nc2c3c(=O)n(CCc3ccccc3)c(=O)n2C)cc1 | 105 | 104

Copied from the list:
Result for COc1ccc(CCNC(=O)c2cccc(-n3c(C)nc4cccnc43)c2)cc1OC in PV pol inh intensity: 106
Result for O=C(CCC(=O)N1CC2CCCN2c2ccccc21)NCc1cccc(Cl)c1 (stereo unspecified) in PV pol inh intensity: 108
Result for COc1ccc(N2CCN(C(=O)Cc3noc4ccc(C)cc34)CC2)cc1 in PV pol inh: 110

The listing continues:
SMILES | PV pol inh intensity | PV pol inh
Cc1ccccc1NS(=O)(=O)c1ccc2[nH]cc(C(=O)N3CCCCC3)c(=O)c2c1 | 106 | 101
COC(=O)c1c(NC(=O)c2cc3ccccc3c(=O)o2)sc2c1CCCC2 | 108 | 108
Cc1ccccc1Nc1nn2c(=O)c3ccc(C(=O)NCc4cccs4)cc3nc2s1 | 102 | 106
CC(C)(C)C(=O)Nc1ccc2nc(SCc3ccccc3)sc2c1 | 111 | 112
Cc1cccn2c(=O)cc(COc3ccc(NC(=O)C(C)C)cc3)nc12 | 104 | 101
COc1ccc(-c2cc(C(F)(F)F)n3nc(C(=O)Nc4cccc(Cl)c4Cl)cc3n2)cc1OC | 107 | 103
CCc1nn2c(=O)cc(COC(=O)Cc3ccccc3)nc2s1 | 106 | 102
Cc1cc(NC(=O)c2ccc(NC(=O)CCS(=O)(=O)c3cccs3)cc2)ccc1Br | 112 | 108
COc1ccc2c(C)c(CC(=O)NCc3ccccc3Cl)c(=O)oc2c1OC | 105 | 101
COc1ccc(NC(=O)c2sc3nc(-c4cc5ccc(OC)cc5oc4=O)[nH]c(=O)c3c2C)cc1 | 110 | 107
CCOc1ccc(CNS(=O)(=O)c2c(C(=O)N3CCCCCC3)c(C)n(C)c2C)cc1OC | 104 | 108
O=C(Cn1c(=O)c2cc(Cl)ccc2n2nncc12)Nc1ccccc1 | 109 | 105
O=C(Cc1ccccc1)Nc1sc2c(c1C(=O)Nc1cccc(Cl)c1)CCCCC2 | 106 | 104
Cc1c(C(=O)N(Cc2ccc(N(C)C)cc2)Cc2ccco2)oc2cc(Br)ccc12 | 110 | 109
CCC(=O)NC1CC(=O)N(c2ccc3c(c2)OCCO3)C1 (stereo unspecified) | 99 | 105
CC1=C(c2ccc(C(C)C)cc2)S(=O)(=O)N=C1N1CCC(C(=O)NCc2ccc(C)o2)CC1 | 110 | 115
Cc1ccc(NC(=O)Cc2csc(C)n2)c(C)c1 | 106 | 103
CCCCNC(=O)CCCN1C(=O)c2ccccc2Sc2ncccc21 | 111 | 109
CC(C)(C)OC(=O)N1CCC(c2c(C(=O)NC3CCCCC3)cnn2-c2cccc(Cl)c2)CC1 | 112 | 106
CCOc1ccc(CNc2cc(C)nc3nc(-c4cccc(C)c4)nn23)cc1OC | 112 | 106
CC(=O)c1cc(-c2ccccc2)n(CC(=O)Nc2ccc(C)cc2C)c1C | 95 | 106
Cc1ccc(NS(=O)(=O)c2cc(-c3cc(C)no3)ccc2C)c(Cl)c1 | 101 | 102
COc1cccc2cc(-c3nc(Cl)c4c5c(sc4n3)CC(C)CC5)c(=O)oc12 (stereo unspecified) | 107 | 104
CCCc1cc(=O)n2[nH]c(NCc3ccc(CC)cc3)nc2n1 | 113 | 111
COc1ccc(CCNC(=O)CCCn2c(=O)c3ccccc3n(Cc3ccc(F)cc3Cl)c2=O)cc1OC | 108 | 110
CC(=O)c1ccc(NC(=O)c2cnc(N3CCCC3)nc2C)cc1 | 106 | 111
CC(=O)c1cccc(NC(=O)CCCN2C(=O)COc3ccc(C)cc32)c1 | 111 | 107
Cc1ccc(CNC(=O)C(=O)NCC(c2cccnc2)N2CCN(c3ccc(F)cc3)CC2)cc1 (stereo unspecified) | 114 | 111
COCCCNC(=O)CN1C(=O)COc2ccc(S(=O)(=O)N3CCCCCC3)cc21 | 113 | 107
Cn1c(=O)c2c(nc(NCCCCO)n2Cc2ccccc2Cl)n(C)c1=O | 111 | 108
Cc1ccc(S(=O)(=O)c2c(O)cc(C)c(NS(=O)(=O)c3ccc(Cl)cc3)c2C)cc1 | 101 | 104
CCOc1ccc(CNC(=O)Cn2cc3c(n2)-c2c(oc(C(=O)N4CCOCC4)c2C)CC3)cc1 | 111 | 107
CC(=O)c1ccc(NC(=O)NCCc2c[nH]c3ccccc23)cc1 | 111 | 116
CCOc1ccccc1NC(=O)CSc1nnc2[nH]c(=O)cc(-c3ccccc3)n12 | 95 | 100
CCOc1ccc(-n2c(SCc3nc(-c4ccccc4C)no3)nnc2-c2ccccc2)cc1 | 116 | 111
Cc1ccc(NS(=O)(=O)c2ccc(NC(=O)N3CCCC3)cc2)cc1C | 113 | 114
O=C(CSc1nnc(-c2ccccc2)c(-c2ccccc2)n1)NC1CCCCC1 | 109 | 104
Cc1nn(CCC(=O)NCc2ccc(N(C)C)cc2)c(=O)c2nn(-c3ccccc3)c(C)c12 | 110 | 110
CN(C(=O)c1cc2c(Cl)nc3ccccc3c2s1)c1cccc(C(F)(F)F)c1 | 114 | 103
Cc1ccc(NC(=O)CCCn2c(=O)c3cccn3c3ccccc32)cc1Cl | 107 | 103
CCCN(c1ccccc1F)S(=O)(=O)c1ccc2c(c1)C(C)(C)C(=O)N2C | 112 | 108
Cc1cc(Cl)ccc1OCC(=O)Nc1c(Cl)ccc2nsnc12 | 101 | 100
CCc1ccc(NS(=O)(=O)c2ccc3[nH]cc(C(=O)N(C)Cc4ccco4)c(=O)c3c2)cc1 | 105 | 105
CCc1cccc(C)c1NC(=O)Cn1nnc(-c2nc(-c3ccccc3F)no2)c1N | 112 | 111
Cc1ccc(C(=O)NCC(c2ccco2)S(=O)(=O)c2cccs2)cc1C (stereo unspecified) | 106 | 103
O=C(Cn1c(=O)n(-c2ccccc2)c(=O)c2c3c(sc21)CCCC3)Nc1cccc(F)c1 | 111 | 109
CCCn1c2ccccc2c2cnn(CC(=O)N3CCCC(C(=O)OCC)C3)c(=O)c21 (stereo unspecified) | 108 | 104
O=C(Nc1ccc(Br)cc1)C1CCN(S(=O)(=O)c2cccc3nsnc23)CC1 | 110 | 108
CCOc1ccc(CCNC(=O)c2cc3c(=O)n(C)c4ccccc4c3s2)cc1OCC | 105 | 103
CCOc1ccc(NC(=O)c2c(Nc3ccccc3C)sc(C(=O)c3ccccc3)c2N)cc1 | 111 | 109

Entries of single compounds, quoted from the list:
`Cc1ccc(NC(=O)Cc2csc(C)n2)c(C)c1` is entered as PV pol inh intensity = 106; PV pol inh = 103
`Cc1ccc(C(=O)NCC(c2ccco2)S(=O)(=O)c2cccs2)cc1C` (stereo unspecified) is entered as PV pol inh intensity = 106; PV pol inh = 103
`O=C(Cn1c(=O)c2cc(Cl)ccc2n2nncc12)Nc1ccccc1` is entered as PV pol inh intensity = 109; PV pol inh = 105

(more compounds)
SMILES | PV pol inh intensity | PV pol inh
Cc1c(C(=O)NCc2ccc(OC(C)C)cc2)sc2ncnc(N(C)C3CCCCC3)c12 | 113 | 107
CCOc1ccc(C(=O)NCCSc2c(C)[nH]c3ccccc23)cc1OCC | 111 | 104
Cc1ccc(CNC(=O)c2cnn(-c3cccc(C)c3)c2C2CCN(C(=O)OC(C)(C)C)CC2)cc1 | 107 | 104
Cc1ccc(C(=O)N2CCN(Cc3cc(=O)n4nc(-c5ccccc5)sc4n3)CC2)cc1 | 114 | 108
Cc1cccc(OCCCCn2c(C3CC(=O)N(c4ccccc4Cl)C3)nc3ccccc32)c1 (stereo unspecified) | 107 | 104
COc1ccccc1CCNC(=O)c1cc2c(=O)n3cccc(C)c3nc2n1C | 114 | 105
CCOc1ccc(-c2cnc(NCc3ccc(OC)cc3OC)n2C)cc1 | 103 | 105
CCN(CC)CCCNC(=O)c1cn(CC(C)C)c(=O)c2c1c1ccccc1n2C | 108 | 109
O=C1Nc2ccc(S(=O)(=O)Nc3ccccc3O)c3cccc1c23 | 110 | 105
COc1cc(Cl)c(NC(=O)CN(C)S(=O)(=O)c2ccc3[nH]c4c(c3c2)CCCC4)c(OC)c1 | 113 | 107
CCn1cc(C(=O)NCCc2ccc(Cl)cc2)c(=O)c2cc(S(=O)(=O)N3CCCCCC3)ccc21 | 106 | 104
COc1ccc(-c2cc(C(=O)Nc3sc4c(c3C#N)CCCC4)no2)cc1OC | 100 | 95
Cc1ccc(-n2c(=O)c3c(C)c(C(=O)N(C)C)sc3n(Cc3ccccc3C)c2=O)cc1C | 114 | 106
COc1cc(-c2noc(-c3cc(C(C)C)[nH]n3)n2)cc(OC)c1OC | 106 | 104
CCOC(=O)c1c(C)[nH]c(C)c1S(=O)(=O)N1CCC(C(=O)Nc2ccc(F)cc2F)CC1 | 103 | 102
CC(C)Oc1ccc(CNC(=O)c2cccc(NC(=O)c3nsc4ccccc34)c2)cc1 | 107 | 112
Cc1cccc(-n2c(Cc3ccccc3)nnc2SCc2nc(-c3cccs3)no2)c1 | 114 | 110
CCOc1ccc(-c2nc3c(c(SCC(=O)N4CCCCC4)n2)Cc2ccccc2O3)cc1 | 106 | 101
Cc1ccc(C)c(N2CCN(C(=O)CCc3nnc4n(CC(C)C)c(=O)c5ccccc5n34)CC2)c1 | 110 | 107
COc1ccc(C)cc1NC(=O)CCNC(=O)Cn1ccc2ccccc2c1=O | 108 | 107
Cc1oc2ncn(CC(C)C)c(=O)c2c1C(=O)N(CCN(C)C)Cc1ccccc1 | 113 | 113
CCOc1ccc(OCC)c(NS(=O)(=O)c2ccc(-c3coc(C)n3)cc2)c1 | 107 | 110
CCCCOc1ccc(C(=O)NCCc2csc(-c3ccc(OC)cc3)n2)cc1 | 100 | 103
CCn1nc(C)c2c(-c3ccccc3)cc(=O)n(C(C)C(=O)Nc3ccc(OC)c(OC)c3)c21 (stereo unspecified) | 108 | 102
C#CC(C)(CC)NC(=O)Cn1nnc(-c2ccc(OCc3ccccc3Cl)cc2)n1 (stereo unspecified) | 109 | 106
COCCNC(=O)CSc1nc(-c2ccc(C)cc2)[nH]c1-c1ccc(OC)cc1 | 113 | 112
Cc1cc2n(n1)CCCN2C(=O)Nc1ccccc1C(F)(F)F | 106 | 114
CCC(Sc1nnc(C)n2c1cc1sccc12)C(=O)Nc1ccccc1F (stereo unspecified) | 95 | 101
CCc1ccc(CN(C(=O)Nc2cccc(Cl)c2)c2ccccn2)cc1 | 100 | 106
COc1ccc(CCNC(=O)c2ccc3c(c2)N(Cc2ccccc2)CCS3)cc1OC | 105 | 101
CCCSc1nc(-c2ccccc2)[nH]c1S(=O)(=O)c1ccc(C)cc1 | 18* | -16*
CCOc1ccc(OCC)c(NS(=O)(=O)c2cc(-c3onc(C)c3C)ccc2OC)c1 | 108 | 107
O=C(Nc1ccccc1Br)N1CCC(CN2CCCC2)CC1 | 117 | 105
Cc1c2cnn(CC(=O)NCc3ccc(F)cc3)c(=O)c2c(C)n1Cc1cccc(Cl)c1 | 114 | 110

High-throughput results (PubChem BioAssay)
